Compound activity (PubChem BioAssay)
MT1-MMP act inh = inhibitors of human MT1-MMP activation; AID 651647; GFP/RFP ratio change, % at 20 µM; HT1080 RFP-PRO-GFP cells, GFP/RFP ratio fluorescence, overnight; percent of plate control window, DMSO zero; 0.061% of 360,000 active; P50281;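 active = GFP/RFP ratio change of at least 30% with cell ATP level not reduced by more than half and red fluorescence within 50% of control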; also: strong numbers were not always called active
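Test system: HT1080 RFP-PRO-GFP cells; Benchmarks: DMSO and RFP-L50D-GFP cell wells; Timing: cells overnight before dosing, compound overnight, 37 °C, 5% CO2; Compound: one 20 µM compound dose with 1% DMSO; Read-out: GFP/RFP fluorescence ratio.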
Env fusion inh = HIV envelope-mediated fusion inhibition | HeLa-JRFL Env/CEM21 cell fusion, luciferase | 1.1% of 360,000 active | inhibition, % at 12.3 µM | AID 651610;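 active = mean replicate inhibition score of at least 50 and every replicate individually at or above 50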;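 also: 0% = plate neutral controls and 100% = maraviroc near 300 nM; one replicate is shown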
eIF4H inh = inhibitors of RNA binding by human eIF4H | eIF4H fluorescence polarization binding assay | Q15056 | 0.94% of 290,000 active | AID 2012 | inhibition, % at 35 µM;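 active = 50% or more with normal probe brightness, or confirmed in later tests; about a fifth of its hits are not listed in these tables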;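 also: calls also rest on retests at 20 µM and on dose response follow-up; 0% = protein and probe with vehicle and 100% = probe without protein; strong numbers were not always called active; many hits fall short of the cut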
Yeast UUG start = alters start codon recognition fidelity in yeast; 0.13% of 350,000 active; S. cerevisiae UUG-firefly luciferase reporter, luminescence/redox ratio; activity score, % at 18.7 µM; AID 602363;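 active = replicate mean at a twofold rise or more, about +100% in these data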;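 also: firefly luciferase made from a UUG start codon reports start codon fidelity; reporter light over untreated wells divided by growth signal over untreated wells; some hits fall short of that in this replicate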
Rce1 inh = inhibitors of yeast Ras-converting enzyme; calls only; AID 2563; 0.27% of 290,000 active; yeast membranes, quenched prenylated peptide cleavage fluorescence; Q03530;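 active = fall in fluorescence gain of 50% or more versus controls, with final raw signal at or below 3038400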;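 also: plate controls were neutral control wells for no effect and wells lacking membranes for full effect; tested at 10 µM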
PABP polyA inh = PABP-poly(A) binding inhibition; P11940; PABP-poly(A) RNA binding, fluorescence polarization; inhibition, % at 35 µM; 1% of 290,000 active; AID 2014;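 active = 50% or more with normal probe brightness, or confirmed in later tests; about a fifth of its hits are not listed in these tables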;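 also: calls also rest on retests at 20 µM and on dose response follow-up; controls were probe without protein and protein plus probe with vehicle; some compounds called inactive have numbers as strong as hits; many hits fall short of the cut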
Target sequence (P11940 whole entry, looked up): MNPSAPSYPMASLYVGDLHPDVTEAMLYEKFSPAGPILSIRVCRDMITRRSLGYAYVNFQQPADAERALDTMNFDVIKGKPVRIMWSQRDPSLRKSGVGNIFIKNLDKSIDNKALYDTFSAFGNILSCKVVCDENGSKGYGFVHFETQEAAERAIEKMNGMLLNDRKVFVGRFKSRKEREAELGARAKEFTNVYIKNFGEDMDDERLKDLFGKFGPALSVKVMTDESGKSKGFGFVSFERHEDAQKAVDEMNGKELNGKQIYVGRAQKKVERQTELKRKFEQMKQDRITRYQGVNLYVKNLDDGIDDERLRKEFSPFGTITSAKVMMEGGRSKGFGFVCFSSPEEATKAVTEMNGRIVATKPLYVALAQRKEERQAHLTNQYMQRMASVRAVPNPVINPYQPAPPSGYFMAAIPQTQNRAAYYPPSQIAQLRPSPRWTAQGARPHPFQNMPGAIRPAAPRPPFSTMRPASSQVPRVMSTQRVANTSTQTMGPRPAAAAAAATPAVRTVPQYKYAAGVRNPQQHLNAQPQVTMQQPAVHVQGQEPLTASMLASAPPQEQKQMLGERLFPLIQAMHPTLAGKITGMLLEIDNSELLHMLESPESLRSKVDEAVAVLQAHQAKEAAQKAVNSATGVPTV
CSC inhib = blocks cancer stem cells; 1.1% of 300,000 active; cancer stem cell-like cells viability, luminescence; inhibition, % at 7.5 µM;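 active = mean at 75% or more and at least half the replicates too; tested in HMLE shEcad cells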;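 also: 0% = median of negative and 100% = median of positive control wells; the first replicate is given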
MT1-MMP act inh RFP = second read-out of MT1-MMP act inh, no call of its own (marks repeat the call); RFP signal change, %; measured here: RFP expression control read;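 0 = vehicle wells; hits needed this value within 50% of zero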
The depositor's hits bear a star; i = inactive; x = not tested or not shown; + = active, no number.

Under each structure – MT1-MMP act inh, MT1-MMP act inh RFP, Env fusion inh, eIF4H inh, Yeast UUG start, Rce1 inh, PABP polyA inh, CSC inhib
1) O=C(NCCSc1ccccc1)c1ccc(Br)cc1
  3, 5, -140, 16, x, i, 8, x
2) CCOc1ccc(CN(C)C(C)C(=O)NCc2ccccc2)cc1 (stereo not given)
  -2, -1, 8, 0, -13, i, 3, -3
3) O=C(C(=O)N1CCCC1)c1c[nH]c2ccccc12
  1, 2, -13, 0, -14, i, 11, -6
4) COc1ccc2[nH]c(C(=O)O)c(NS(=O)(=O)c3ccc(F)cc3)c2c1
  -3, 2, 5, -8, -2, i, 4, 4
5) CCc1ccccc1NC(=S)N1CCNC(=O)C1CC(=O)OC (stereo not given)
  0, 4, 0, 4, -8, i, -2, -2
6) CC1=C(C(=O)N(C)C)CC(CC(=O)NC2CCCC2)C(=O)N1CCCN1CCCC1=O (stereo not given)
  -1, -2, -9, x, 7, x, x, x
7) O=C(NCc1ccccn1)C(=O)N/N=C/c1ccc2c(c1)OCO2
  1, 1, 12, 1, x, i, -1, -7
8) CC(=O)N1CCc2cc(NC(=O)C3(C)CCN3Cc3ccccc3Cl)ccc21 (stereo not given)
  -1, 0, -19, x, -7, x, x, x
9) COCCNC(=O)c1cc2cc(Br)cc(Br)c2oc1=O
  -5, 7, 8, 2, -15, i, 12, 0
10) O=S(=O)(c1ccc2oc3ccccc3c2c1)N1CCOCC1
  2, -2, -3, -6, -2, i, 4, 2
11) COc1cc(CC(=O)N2CCC(n3nccc3NC(=O)C3CC3)CC2)cc(OC)c1OC
  0, 4, 10, 5, -8, i, -10, -1
12) Cc1ccc(S(=O)(=O)N2[C@@H](c3ccc(Cl)cc3)C(C(=O)O)=C[C@H]2CC2CCCC2)cc1
  8, 0, 3, x, -3, x, x, x
13) O=C(C/C=N\OCc1ccc([N+](=O)[O-])cc1)Nc1ccc(F)cc1F
  -2, 1, -18, 8, x, i, -3, -6
14) COC(=O)c1[nH]c2cccc(OC)c2c1NC(=O)CCN1CCSCC1
  2, 1, 13, 1, x, i, 2, -11
15) Cc1[nH]c2ccccc2c1C(=O)C(=O)NCCc1c[nH]c2ccccc12
  3, 0, -5, 6, -39, i, -3, 26
16) O=C(CCc1ccccc1)Nc1nn[nH]n1
  3, 4, x, -2, x, i, 6, -4
17) CCCCN(C)c1c(C)nc2ccc(C(=O)NCc3ccc(OC)cc3)cn12
  -1, 1, 9, x, 0, x, x, x
18) CC(C)NCC(O)c1ccc(O)c(O)c1 (stereo not given)
  1, -1, 6, -2, -3, i, 6, 0
19) O=C(NCCc1ccccc1)c1nccc2ccccc12
  0, 2, -36, x, -6, i, x, -3
20) COc1cc(OC)nc(Oc2cc(/C=N/O)ccc2OC)n1
  -8, -2, -12, -10, x, i, 9, 11
21) O=C1CC(c2ccccc2)CC(=O)C1CS(=O)(=O)c1ccccc1 (stereo not given)
  1, 4, -54, -2, x, i, -2, x
22) COc1ccc(Nc2ncnc3nc[nH]c23)cc1OC
  2, 2, x, -5, -15, i, -6, -6
23) COc1cccc(CNc2ccc(S(N)(=O)=O)cc2)c1OC
  6, -3, x, -6, -3, i, -11, 5
24) O=C(NCc1ccccc1)c1ccc(CNc2c(N3CCCC3)c(=O)c2=O)cc1
  -11, 0, 17, 4, -9, i, 7, -10
25) O=C(c1ccccc1)c1ccc(N2CCOCC2)c(NC(=O)c2ccco2)c1
  1, -3, -24, -10, -8, i, -6, 16
26) CC1CCN(c2ccc(C=O)o2)CC1
  2, 10, 7, -8, x, i, -3, -16
27) COc1ccc(C2NCCc3c2[nH]c2ccccc32)cc1CN1CCc2cc(OC)c(OC)cc2C1C (stereo not given)
  1, 1, x, -1, x, i, -6, x
28) CCOC(=O)Cc1csc(SCC(=O)Nc2oc(C)c3c(C)n[nH]c(=O)c23)n1
  -12, -6, 10, x, -6, x, x, -12
29) Nc1ccc2c(C(F)(F)F)cc(C(F)(F)F)nc2n1
  0, 1, -16, 0, x, +, -2, -8
30) COc1ccccc1Nc1nc(NCCCN(C)C)nc(N)c1[N+](=O)[O-]
  -9, -7, -17, -2, -11, i, -12, -6
31) Cc1ccc(/C=N/NC(=O)COc2ccccc2-c2ccccc2)cc1
  16, 4, -60, 8, -4, i, -1, 114*
32) O=S(=O)(c1ccc(-c2ccccn2)s1)N1CCC2(CC1)OCCO2
  1, -12, -5, -2, -15, i, 11, -1
33) CCNc1nc(SC(C)C(=O)Nc2ccccc2)nc(N2CCOCC2)n1 (stereo not given)
  -5, 5, -1, 3, -13, i, 17, 13
34) COc1cccc(NC(=O)c2oc3ccccc3c2NC(C)=O)c1
  -6, -1, x, -4, -23, i, 2, -9
35) COc1ccc(N(CC(=O)NCc2ccco2)S(C)(=O)=O)c(OC)c1
  0, 1, 5, -8, x, i, 5, -11
36) CCOC(=O)C1CCN(CC(C)(C)NS(=O)(=O)c2ccccc2)CC1
  4, 1, 29, 3, 14, i, 19, -3
37) COc1cc(OC)cc(C(=O)NC(=S)Nc2ccc3oc(=O)ccc3c2)c1
  4, 6, -6, 1, -3, i, 5, -9
38) COc1ccccc1NC(=O)COC(=O)c1c(NC(C)=O)sc(C)c1C
  5, -4, 19, x, -10, x, x, x
39) O=C(NCCCCCNC(=O)c1ccccn1)c1ccccn1
  -3, 0, 0, -9, 8, i, -8, -8
40) C/C(=C\COc1ccc2ccc(=O)oc2c1)CC[C@@H](O)C(C)(C)O
  2, 1, -21, x, -16, x, x, -8
41) COC(=O)CSc1ccc2nnc(-c3ccc(OC)c(OC)c3)n2n1
  0, 4, 22, -10, -14, i, -15, 0
42) Cc1cccc(N2CCN(C(=O)C3CCCCC3)CC2)c1C
  -2, -3, x, -3, -4, i, -3, 6
43) CN(CC(=O)Nc1ccc(Cl)cc1)CC(=O)Nc1ccc(F)c(F)c1F
  3, 4, 4, -7, x, i, 7, 7
44) COc1ccc2oc(=N)c(C(=O)Nc3cccc(C)c3C)cc2c1
  8, -8, -69, -13, 0, i, -5, -4
45) COc1cccc(Nc2nc(C(N)Cc3ccc(C(F)(F)F)cc3)cs2)n1 (stereo not given)
  -4, 1, 23, x, -12, x, x, x
46) CCn1c(Cc2ccccc2)nnc1SCC(=O)Nc1ccccc1F
  0, 2, 8, -7, x, i, 6, -7
47) OC(COCc1ccco1)CN1CCN(c2ccccc2)CC1 (stereo not given)
  4, 6, -10, -8, -5, i, -2, 2
48) Cc1nn(CC(=O)Nc2nc3ccccc3s2)c(C)c1[N+](=O)[O-]
  4, 4, 6, -11, -13, i, -3, 1
49) S=c1[nH]nc(C2CC2c2ccc(Cl)cc2)n1-c1ccc(Cl)cc1 (stereo not given)
  4, 2, 12, 7, x, i, -4, x
50) O=C(NCc1ccccc1C(F)(F)F)C1CC(c2ccccc2[N+](=O)[O-])=NO1 (stereo not given)
  3, -5, 15, -3, -13, i, 3, -22
51) c1ccc(SCc2nc3ccccc3s2)nc1
  -3, 0, -30, 0, -18, i, -3, x
52) COC(C[C@@H](O)[C@H](C)[C@@H](O)COCc1ccccc1)OC
  0, 2, -10, -7, -4, i, 5, x
53) COc1ccc(N(CC(=O)NCc2cccs2)S(=O)(=O)c2ccc(C(C)=O)cc2)cc1
  2, 5, -33, x, -10, x, x, x
54) CCOc1cccc(C(=O)NC2=NCCS2)c1
  -1, -4, -9, 0, -10, i, 6, 4
55) CCC(=O)Nc1ccc(C(=O)NNC(=O)c2ccc(Cl)cc2)cc1
  4, 3, 1, 8, -4, i, 16, x
56) Nc1ncnc2nc(SCCc3ccccc3)[nH]c12
  4, 1, -19, 4, 7, i, -3, -14
57) Cc1cccnc1Nc1nc(-c2ccccn2)cs1
  0, -6, x, 7, -22, i, -14, 101*
58) COc1ccccc1CN1CC(C(=O)N(C)Cc2ccc(C)o2)CCC1=O (stereo not given)
  0, 3, -6, -12, -3, i, -6, 2
59) CCOC(=O)C1=C[C@@H](C(C)C)N(S(=O)(=O)c2ccc(C)cc2)[C@H]1c1ccccc1F
  -7, -15, 53, x, -5, x, x, x
60) Cc1ccc(S(=O)(=O)NC(CC(C)C)C(=O)Nc2nccs2)cc1 (stereo not given)
  -3, 3, x, -6, -10, i, -3, -2

The list continues:
Under each structure – MT1-MMP act inh, MT1-MMP act inh RFP, Env fusion inh, eIF4H inh, Yeast UUG start, Rce1 inh, PABP polyA inh, CSC inhib
61) COc1ccnc(Oc2ccc(F)cc2)c1C(=O)N/C=N/OCc1ccccc1
  2, -1, 9, -3, x, i, -8, -2
62) CSc1cccc(N2CC(C(=O)N(Cc3nnc(-c4ccccc4Cl)o3)C3CC3)CC2=O)c1 (stereo not given)
  2, -3, -214, 12, 9, i, 12, -34
63) CCN(CC)CCCN=C1N[C@@H](c2ccccc2)C(C(=O)OC)=C(C)N1CC
  -2, 3, -19, x, -12, i, x, 0
64) CCN1CCN(C(=O)CN2C(=O)c3ccccc3S2(=O)=O)CC1
  4, 9, -15, x, -12, i, x, -13
65) CCc1ccccc1Nc1nc(N)nc(CSc2nnc3ccccn23)n1
  0, -8, -7, 0, x, i, -2, -7
66) COc1ccc(NC(=O)c2ccc3[nH]c(=O)c(=O)[nH]c3c2)c(OC)c1
  -1, 1, -3, 3, -17, i, 4, -17
67) COc1ccccc1NC(=O)C1=C(C)Nc2nnnn2C1c1cc(Br)ccc1OC (stereo not given)
  -2, -1, -94, -8, -10, i, 2, -14
68) COCCN1C(=O)N[C@@H](c2cccc(C(F)(F)F)c2)C(C(=O)OC)=C1C
  -1, 4, x, x, -15, i, x, -16
69) CC(=O)N1c2ccccc2C(CBr)=CC1(C)C
  -2, 3, 4, -3, x, i, 1, 3
70) CC(=O)NS(=O)(=O)c1ccc(NS(=O)(=O)c2ccccc2[N+](=O)[O-])cc1
  5, 6, 0, -8, -8, i, 4, -8
71) Cc1c(CN(C)C)c2c(n1Cc1ccccc1)C(=O)c1ccc(Br)cc1-2
  0, -19, 26, -10, 4, i, 1, 13
72) O=C(CCNS(=O)(=O)c1ccc(Br)cc1)NNC(=O)C1COc2ccccc2O1 (stereo not given)
  -3, 3, -1, x, 1, x, x, -3
73) Cc1ccc(NC(=O)CSc2nnc(-c3cnccn3)n2C)cc1C
  1, 1, 7, -15, x, i, -8, -14
74) CCN(CC)S(=O)(=O)c1cccc(NC(=O)CN2C(=O)c3ccc([N+](=O)[O-])cc3C2=O)c1
  2, 4, 4, 2, -4, i, -3, 8
75) CCCCn1c(SCC(=O)N2CCOCC2)nc2ccccc2c1=O
  -2, 1, 15, -7, -20, i, 3, 27

Nos. 74 to 75 from above:
Under each structure – MT1-MMP act inh, MT1-MMP act inh RFP, Env fusion inh, eIF4H inh, Yeast UUG start, Rce1 inh, PABP polyA inh, CSC inhib
74) CCN(CC)S(=O)(=O)c1cccc(NC(=O)CN2C(=O)c3ccc([N+](=O)[O-])cc3C2=O)c1
  2, 4, 4, 2, -4, i, -3, 8
75) CCCCn1c(SCC(=O)N2CCOCC2)nc2ccccc2c1=O
  -2, 1, 15, -7, -20, i, 3, 27

This is a subset, so the mix of outcomes need not match the whole.
